Bioassay records as filed in PubChem.
miR-21 FLuc: raises the signal of a miR-21 reporter; 340,000 tested, under 10 active; AID 2288; HeLa miR-21 FLuc reporter, luciferase, 48 h; Potency, µM (top dose mostly 38.3 µM), for the others: at the highest dose reporter change, positive = more light; active = well fitted rising curve with a large enough effect; inconclusive = small, poorly fitted or top-dose-only effect; inactive = no such curve, though single readings can be large or run the other way;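 note: % of control where 0% means no effect; miR-21 action dims this reporter so a rising signal means less miR-21 action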
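Using DMEM plus 10% FBS, HeLa miR-21-FLuc cells are incubated with test compounds (final up to about 40uM) for 48 hours; firefly luciferase signal is then imaged following reagent-mediated lysis.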
Rango-impB inh: Rango-importin beta binding inhibition. Q14974. Rango CFP/YFP FRET sensor + importin beta, 45 min. Potency, µM (top dose mostly 92.2 µM), inactives show at the highest dose inhibition of complex formation. 0.031% of 340,000 active. AID 540263; active = rising FRET ratio curve, often small or poorly fitted; inconclusive = mostly compound fluorescence or quenching in the first reads; inactive = flat curves in all reads;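 note: potency is the fitted concentration of half-maximal effect; 0% = DMSO wells and 100% = buffer wells lacking importin beta; nearly all actives have a fitted effect of over 15% in size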
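Inhibition scored from the CFP 486 nm/YFP 530 nm FRET ratio 45 min after adding 0.125 microM importin beta to 50 nM Rango biosensor preincubated 5 min with compound (room temperature, PBS with DTT, Tween-20, BSA). No-importin wells as positive control.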
GLA inh pH 4.5: blocks human alpha-galactosidase A at pH 4.5; purified enzyme, 4-MU-alpha-Gal fluorescence, pH 4.5; activity change, negative = inhibition, % at 105 µM; 230,000 tested, under 10 active; AID 1467; inconclusive = small, poorly fitted or top-dose-only inhibition, or a rising curve; inactive = flat fitted curve, though single readings scatter; no compound was filed as active;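 note: 0% = full activity with enzyme and -100% = basal without enzyme; dose as in the result columns while the protocol names 77 µM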
Target sequence (P06280 whole entry, looked up): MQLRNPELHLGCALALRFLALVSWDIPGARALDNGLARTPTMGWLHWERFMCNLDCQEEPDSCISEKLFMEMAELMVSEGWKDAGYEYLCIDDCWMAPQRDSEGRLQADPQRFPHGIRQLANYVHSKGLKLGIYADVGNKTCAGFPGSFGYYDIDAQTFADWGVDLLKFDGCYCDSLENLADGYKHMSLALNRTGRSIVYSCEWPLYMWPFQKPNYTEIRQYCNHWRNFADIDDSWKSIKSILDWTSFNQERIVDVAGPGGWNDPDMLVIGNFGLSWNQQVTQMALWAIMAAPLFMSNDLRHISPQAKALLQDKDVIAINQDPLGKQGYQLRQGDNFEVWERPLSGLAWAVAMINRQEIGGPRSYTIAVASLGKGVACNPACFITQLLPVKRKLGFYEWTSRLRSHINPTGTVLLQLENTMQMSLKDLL
Rango dissoc inh: inhibitors of RanGTP-induced Rango-importin beta complex dissociation. O95149+P62826. Biochemical FRET Rango-importin beta, RanGTP-induced dissociation. Potency, µM (series often up to 46.1 µM), for inactives: at the top dose activity change, negative = inhibition. 0.071% of 340,000 active; active means falling FRET ratio curve, often poorly fitted, with flat reads before Ran was added; inconclusive means other falling curves, or compound fluorescence or quenching; inactive means flat or rising ratio curve;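 note: potency is the fitted concentration of half-maximal effect; % of control where 0% means no effect; nearly all actives have a fitted effect of over 45% in size; -100% = wells without RanGTP and RCC1; the record marks most hits as doubtful in a second field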
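Compounds preincubate 5 min with complex of recombinant Rango and importin beta in PBS with 1 mM DTT. Ran (0.6 uM) loaded with 2 mM GTP plus 0.2 uM RCC1 starts dissociation; FRET is recorded 45 min later.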
* marks the source's active call; other numbers are inactive results; ? = inconclusive; / = not tested or not shown; & = joins results of further samples.

SMILES | miR-21 FLuc | Rango-impB inh | GLA inh pH 4.5 | Rango dissoc inh
O=C(Nc1cc(S(=O)(=O)N2CCCC2)ccc1Cl)c1cc(F)c(F)c(F)c1F | / | 1.4% | / | -4%
CCNS(=O)(=O)c1ccc2c3c(cccc13)C(=O)N2 | -9% | ? | 15 | ?
N/C(=N\OS(=O)(=O)c1cc(Cl)ccc1Cl)c1ccncc1 | -2% | 3.8% | 1 | 1%
O=C(COC(=O)CSc1ccc(F)cc1)NCc1ccco1 | / | 0.7% | / | -3%
O=C1CC(NCc2cccs2)C(=O)N1c1ccc(Cl)cc1 (configuration not stated) | 0% | 2.5% | 6 | -11%
COCCCNc1nc2nonc2nc1N1CCC(C(C)N2CCOCC2)CC1 (configuration not stated) | -5% | 0.8% | 2 | -4%
O=C(Cc1ccc(O)cc1)NC1CCCCCC1 | -53% | -0.8% | / | 11%
C=CCOC(=O)C1=C(C)NC(SCC(=O)Nc2ccccc2)=C(C#N)C1c1ccco1 (configuration not stated) | 4% | -0.5% | -6 | 1%
Cc1nc2ccc(Cl)cn2c1C(=O)NN | 9% | -0.1% | 4 | -10%
COc1cc(NC(=O)C(=O)NCCN2CCNCC2)c(OC)cc1Cl | -2% | 3.8% | 0 | -8%
CCNc1nc(NC(C)CC)nc(ON=C(C)C)n1 (configuration not stated) | 0% | 1.6% | 7 | 8%
COc1ccc(N=C2SC(C(=O)O)CC(=O)N2Cc2ccc(OC)c(OC)c2)cc1 (configuration not stated) | -9% | 1.3% | -1 | ?
O=C(Cc1ccc([N+](=O)[O-])cc1)Oc1ccccc1 | / | 0.4% | / | 1%
CCn1cc(CN2CCC(n3nccc3NC(=O)Cc3ccccc3)CC2)cn1 | -1% | 1.2% | / | 7%
CC(C)(C)c1ccc(C(=O)Cn2nc(C(=O)O)c3ccccc3c2=O)cc1 | -1% | 6.0% | 10 | 12%
COc1ccc(S(=O)(=O)N2CCCCC2)cc1NC(=O)c1ccccc1 | / | -4.3% | / | 8%
NC(=O)C(=O)N/N=C/c1cccc(C(F)(F)F)c1 | 0% | 1.1% | -9 | -9%
C=CCc1c(C)nc2c(-c3ccccc3)cnn2c1N1CCOCC1 | -80% | -0.3% | / | -8%
COC(=O)c1c(NC(=O)C2SC(=NC3CCCCC3)C(C(N)=O)=C2N)sc2c1CCCC2 (configuration not stated) | 1% | -6.7% | -20 | -12%
O=C(CCC(=O)OCc1ccc(Br)cc1)Nc1ccccc1 | -2% | 0.4% | 2 | -7%
Cc1ccc(C2C3=C(CC(C)(C)CC3=O)Nc3n[nH]c(C)c32)cc1 (configuration not stated) | -1% | -2.8% | 7 | 4%
CCOC(=O)C1(CCc2ccccc2)CCN(Cc2ccc(C(=O)OC)cc2)CC1 | 3% | 0.2% | / | 3%
CCN(CC(=O)Nc1ccc(NC(C)=O)cc1)C(=O)c1cccc(N2C(=O)c3ccccc3C2=O)c1 | / | 0.5% | / | -1%
COc1ccc(N2CCC(CNC(=S)Nc3ccc(C)cc3C)C2)cc1 (configuration not stated) | 9% | -0.3% | -5 | 9%
Cc1ccccc1NC(=O)c1cccc(S(C)(=O)=O)c1 | -4% | 2.4% | 3 | -3%

The final two entries of the section above open the next one.
SMILES | miR-21 FLuc | Rango-impB inh | GLA inh pH 4.5 | Rango dissoc inh
COc1ccc(N2CCC(CNC(=S)Nc3ccc(C)cc3C)C2)cc1 (configuration not stated) | 9% | -0.3% | -5 | 9%
Cc1ccccc1NC(=O)c1cccc(S(C)(=O)=O)c1 | -4% | 2.4% | 3 | -3%
CC(CN1CCCC1)OC(=O)c1cccc(F)c1 (configuration not stated) | -1% | -1.8% | / | -5%
COc1cc(C)ccc1OCc1cc(C(=O)N(Cc2nccn2C)C(C)C)no1 | -54% | 1.6% | / | -8%
CN(CC(=O)Nc1cccc(F)c1)CC(=O)Nc1ccccc1-c1ccccc1 | / | -0.4% | / | 2%
O=C(NC1CCCCCCC1)c1c(Cl)cccc1Cl | / | -2.0% | / | -15%
CC(Oc1ccccc1F)C(=O)NNC(=O)c1ccc(-n2cncn2)c([N+](=O)[O-])c1 (configuration not stated) | / | -3.2% | / | -8%
Cc1cccc(NC(=O)c2cccc(S(=O)(=O)N3CCCCC3)c2)c1 | -3% | -0.2% | / | 22%
O=C(NCc1ccccc1)c1onc(CSc2ccccc2)c1C(=O)NCC1CC1 | ? | 1.1% | -12 | 6%
CC(OC(=O)c1ccc(Br)o1)C(=O)NCC1CCCCC1 (configuration not stated) | / | -0.2% | / | 20%
O=C(CCCn1c(=S)[nH]c2cc3c(cc2c1=O)OCO3)NC1CC1 | 0% | -0.4% | -1 | 1%
COc1ccc(CNC(=O)C2CCC(CNS(=O)(=O)c3cccc4nsnc34)CC2)cc1 (configuration not stated) | -1% | -1.3% | 5 | 6%
COc1ccc(-c2csc(NC(=O)Cc3cccc4ccccc34)c2C(=O)O)cc1 | 13% | -2.3% | -19 | 5%
COc1ccc(-c2cc(C(F)(F)F)n3nc(C(=O)Nc4c(C)n(C)n(-c5ccccc5)c4=O)c(Cl)c3n2)cc1 | -1% | -1.1% | -5 | 15%
COc1ccc(Nc2nc(-c3ccncc3)nc3ccccc23)cc1 | 2% | -1.5% | / | -1%
N#C/C(N)=C(/C#N)N=Cc1cccc(Cl)c1 | 2% | 1.2% | -9 | 1%
Cc1ccc(-c2nn3c(C)nnc3s2)cc1N | -48% | 0.1% | 0 | -5%
CC1(C)CC(=O)C2=C(C1)OC(N)=C([N+](=O)[O-])C2c1ccc(F)cc1 (configuration not stated) | -11% | 2.1% | -8 | 18%
CSc1nc(C)c2c(n1)N(c1ccc(F)cc1)CC2 | -7% | 0.0% | -9 | 0%
OC(Cc1nc2ccccc2[nH]1)c1ccccc1Cl (configuration not stated) | -38% | -5.6% | -11 | 5%
CCOC(=O)CC(NC(=O)c1ccc(C)cc1)c1ccc(OC)cc1 (configuration not stated) | -4% | -0.6% | 8 | 19%
O=C(O)CCCCCN1C(=O)CCC1=O | 0% | 2.9% | -4 | 2%
C=C(C)CCOC(=O)C(CC(=O)O)NCc1ccco1 (configuration not stated) | -2% | 2.0% | 0 | ?
CCOc1ccc(S(=O)(=O)N2CCCC(C(=O)N3CCN(CC)CC3)C2)cc1Cl (configuration not stated) | 1% | 5.7% | / | 15%
CCN(CC)S(=O)(=O)c1ccc(O)c(C(=O)OCC(=O)NC23CC4CC(CC(C4)C2)C3)c1 | / | 4.4% | / | 19%
CCCCn1c(N)c(N(CC(C)C)C(=O)C2CCCO2)c(=O)[nH]c1=O (configuration not stated) | / | 1.8% | / | -5%
O=C(NC1=NCCS1)c1cc2ccccc2o1 | 11% | 6.4% | 2 | 18%

Reprinted at random: 2 records from the list, in no set order.
SMILES | miR-21 FLuc | Rango-impB inh | GLA inh pH 4.5 | Rango dissoc inh
OC(Cc1nc2ccccc2[nH]1)c1ccccc1Cl (configuration not stated) | -38% | -5.6% | -11 | 5%
CN(CC(=O)Nc1cccc(F)c1)CC(=O)Nc1ccccc1-c1ccccc1 | / | -0.4% | / | 2%

The listing continues.
SMILES | miR-21 FLuc | Rango-impB inh | GLA inh pH 4.5 | Rango dissoc inh
CC(=O)Nc1nc(C)c(-c2csc(Nc3ccc(S(N)(=O)=O)cc3)n2)s1 | -12% | -3.1% | 12 | 10%
CCOc1ccc(-n2c(C)c(C(C)=O)c(C(C)=O)c2C)cc1 | -1% | 0.1% | 3 | 1%
O=C(COc1ccccc1[N+](=O)[O-])N/N=C/c1cccc(OC(=O)c2ccc3c(c2)OCO3)c1 | -54% | -5.1% | -3 | -13%
COC(=O)c1ccc(OC)c(CN2CCCN(Cc3cc(C)ccc3C)S2(=O)=O)c1 | 10% | 6.0% | / | ?
CCN(CC(=O)Nc1cc(S(=O)(=O)N2CCOCC2)ccc1C)Cc1ccccc1 | / | 4.4% | / | 3%
O=C(Nc1sc2c(c1C(=O)NCCO)CCCC2)c1ccco1 | 0% | 4.4% | / | ?
O=C(CC1C(=O)NCCN1Cc1ccccc1)NCCC1=CCCCC1 (configuration not stated) | 0% | 2.4% | / | -6%
Cc1cc(NC(=O)c2ccc(NC(=O)C3CC3)cc2)no1 | -13% | -0.8% | 2 | 3%
CC(=O)Nc1cccc(NC(=O)C2CC3CCC2C3)c1 (configuration not stated) | -10% | -0.2% | -10 | -5%
Cc1ccc(NC(=O)c2ccc(Cn3cc(Br)cn3)o2)cc1 | -8% | 0.8% | -30 | -15%
COCCN(C(=O)CSc1nnc(C)n1-c1ccccc1)c1c(N)n(Cc2ccccc2)c(=O)[nH]c1=O | 1% | -1.1% | 7 | -7%
O=C(NCCN1CCOCC1)c1c(F)c(F)c(F)c(F)c1F | -6% | 0.1% | 0 | 3%
COc1ccc(OCCC(=O)OCC(=O)NCc2ccc(F)cc2)cc1 | 2% | -0.5% | -2 | 3%
CCOCC(O)CNC(=O)c1ccc(OC2CCN(C(=O)c3cccnc3)CC2)cc1 (configuration not stated) | 3% | -2.3% | -3 | -7%
Oc1ccccc1/C=N/n1c(COc2ccccc2)n[nH]c1=S | -1% | ? | / | -8%
CCN(CC)CCN1C(=O)c2oc3ccccc3c(=O)c2C1c1ccccc1 (configuration not stated) | -13% | 0.0% | -2 | 11%
Nn1c(SCc2ccc(F)cc2)nnc1-c1cccnc1 | -6% | ? | 4 | 18%
Cc1cc(O)c(C(=O)Nc2cccc(Cl)c2)c(=O)n1C | -38% | -0.7% | / | 44%
CN(CC(=O)NC1CCN(Cc2ccccc2)CC1)S(=O)(=O)c1ccc(Cl)cc1 | / | 1.8% | / | -2%
Cc1ccn2c(Nc3ccccc3C)c(-c3cccnc3)nc2c1 | 4%&-7% | 4.9% | -1 | 4%
CCCc1nn2c(=O)cc(O)nc2s1 | -7% | 3.8% | -12 | 14%
O=C1C2C3C=CC(CC3)C2C(=O)N1c1ccc(F)cc1 (configuration not stated) | -4% | -0.8% | / | 1%
Cc1ccc(C(C)C)c(OCCN2CCc3ccccc3C2)c1 | 8% | 0.0% | / | -8%
O=C(CCc1nc2ccccc2c(=O)[nH]1)NNC(=O)COc1ccccc1Cl | / | -1.5% | / | 23%
CCn1nnc2cc(C(=O)Nc3cc(S(C)(=O)=O)ccc3Cl)ccc21 | -7% | 0.5% | / | -25%
New compounds follow:
SMILES | miR-21 FLuc | Rango-impB inh | GLA inh pH 4.5 | Rango dissoc inh
COc1cc(CNc2ncc(-c3ccc(Br)cc3)n2C)cc(OC)c1OC | 21% | -0.2% | / | -13%
CCOC(=O)C1=C(C)N(CCCC(=O)O)C(=O)NC1c1ccccc1OS(=O)(=O)c1ccccc1[N+](=O)[O-] (configuration not stated) | / | 1.4% | / | -4%
CC1(C)CC(=O)C2=C(C1)N(CCN1CCOCC1)C1=C(C(=O)CC(C)(C)C1)C2c1ccc(Cl)c([N+](=O)[O-])c1 | -1% | ? | -9 | -15%
S=C(Nc1ccc(CN2CCCCC2)cc1)Nc1cccc(Cl)c1Cl | -4% | -1.8% | / | -6%
COc1ccc(NC2=C(C)C(=O)CC2)cc1 | -18% | 2.3% | 13 | -9%
Cc1nc(NC(=O)C2CC3CCCC(C2)C3=O)sc1C (configuration not stated) | -31% | 0.3% | 2 | 2%

An excerpt from the list above:
SMILES | miR-21 FLuc | Rango-impB inh | GLA inh pH 4.5 | Rango dissoc inh
COc1cc(CNc2ncc(-c3ccc(Br)cc3)n2C)cc(OC)c1OC | 21% | -0.2% | / | -13%
CCOC(=O)C1=C(C)N(CCCC(=O)O)C(=O)NC1c1ccccc1OS(=O)(=O)c1ccccc1[N+](=O)[O-] (configuration not stated) | / | 1.4% | / | -4%

A different layout for some results above.
structure,miR-21 FLuc,Rango-impB inh,GLA inh pH 4.5,Rango dissoc inh
O=C(CCc1nc2ccccc2c(=O)[nH]1)NNC(=O)COc1ccccc1Cl,/,-1.5%,/,23%
Cc1ccc(NC(=O)c2ccc(Cn3cc(Br)cn3)o2)cc1,-8%,0.8%,-30,-15%
Cc1cc(NC(=O)c2ccc(NC(=O)C3CC3)cc2)no1,-13%,-0.8%,2,3%
O=C(CCCn1c(=S)[nH]c2cc3c(cc2c1=O)OCO3)NC1CC1,0%,-0.4%,-1,1%
CC(CN1CCCC1)OC(=O)c1cccc(F)c1 (configuration not stated),-1%,-1.8%,/,-5%

An excerpt; count on the stated rates, not on these rows.
